# E coli growth – blocks Escherichia coli growth; OD600 absorbance (test concentration not listed); 0.21% of 330,000 active; OD600, 23 h; active compounds read low;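 active means OD600 absorbance below the run mean of sample wells minus 3.6 SD, in any replicate, cut at about 0.56 in these data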;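 further: stock transfer was 300 nL into about 60 µL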
# AF4-AF9 inh – blocks AF4 peptide binding to human AF9; AlphaScreen, biotin-AF4 peptide binding to FLAG-AF9; inhibition, % at 10 µM; 0.47% of 350,000 active;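 active means every replicate reaching a set inhibition limit, whatever the replicate mean, cut at about 25% in these data; inconclusive means mean inhibition reaches that limit but some replicates miss it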;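 further: 0% = plate neutral control median and 100% = total signal loss; the record names both 10 and 1 µM as test concentration; the first replicate is given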
# A1 inh – inhibitors of the anti-apoptotic protein A1, read as caspase activation. MEF A1-2A-BIM cells, Caspase-Glo 3/7 luminescence, 3 h; percent of clofoctol response, vehicle zero. caspase activation, % (concentration not given with the values). 0.066% of 330,000 active;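 active means over half of replicate activation scores above 10%, or exactly half above 10 with the replicate mean above 10; inconclusive means replicate mean below 10 yet half the replicates above 10; inactive means over half of replicates below 10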;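 further: wells of about 30 µL received 50 nL stock; many hits fall short of the cut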
# rRNA inh HTS – selective bacterial rRNA inhibition in E. coli. 1.6% of 350,000 active. GFP signal change (wild-type ribosome), % (test concentration not listed). E. coli WT GFP vs humanized-ribosome RFP mutants, fluorescence, 24 h; active compounds read low; DMSO median 0, no signal -100;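 active means significant combined selectivity score with lowered wild-type GFP, culture density cut under 30%, mutant RFP and density less affected; inactive means any of these conditions unmet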; further: one replicate is shown; some compounds called inactive have numbers as strong as hits
# UCH37 DUB inh – blocks the human deubiquitinase UCH37; purified proteasome/UCH37, Ub-AMC cleavage fluorescence; inhibition, % (no concentration beside the values); 0.33% of 330,000 active; AID 588478;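 active means mean of two replicates above 20%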;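 further: 0% = compound-free wells with enzyme and 100% = wells lacking proteasome; stock transfer was 100 nL into about 20 µL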
# Target sequence (Q9Y5K5 whole entry, looked up): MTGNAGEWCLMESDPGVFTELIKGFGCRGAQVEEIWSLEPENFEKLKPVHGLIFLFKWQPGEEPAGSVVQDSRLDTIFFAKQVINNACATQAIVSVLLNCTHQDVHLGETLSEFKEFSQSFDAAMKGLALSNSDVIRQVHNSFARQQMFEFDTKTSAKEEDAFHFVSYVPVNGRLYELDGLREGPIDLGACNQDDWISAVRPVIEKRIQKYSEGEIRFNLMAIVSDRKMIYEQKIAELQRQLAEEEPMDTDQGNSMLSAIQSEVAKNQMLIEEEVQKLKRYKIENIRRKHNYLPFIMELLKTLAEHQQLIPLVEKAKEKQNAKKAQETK
#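 Material: human UCH37 enzyme supplied as purified proteasome complex / Amount: 0.15 nM proteasome as dispensed / Buffer or medium: pH 7.4 Tris-HCl (50 mM) with ovalbumin, ATP-MgCl2, DTT / Times: preincubation 30 min, reaction 25 min, room temperature / Technique: AMC fluorescence from Ub-AMC cleavage, excitation 355 nm, emission 460 nm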
# FGF22 binding – shifts melting point of recombinant human FGF22. AID 651658. calls only at 9.99 µM. 1.5% of 340,000 active. Q9HCT0. recombinant FGF22 thermal shift, SYPRO orange fluorescence; percent of sucrose octasulfate shift, DMSO zero;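 active means melting point raised past a set limit in the mean and every replicate; inconclusive means no clear call; three in four hits are not shown here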
# Target sequence (Q9HCT0 whole entry, looked up): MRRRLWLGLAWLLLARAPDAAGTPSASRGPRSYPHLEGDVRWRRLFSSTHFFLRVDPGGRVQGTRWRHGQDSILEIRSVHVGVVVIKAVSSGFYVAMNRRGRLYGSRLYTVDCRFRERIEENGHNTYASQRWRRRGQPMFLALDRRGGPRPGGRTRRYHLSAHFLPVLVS
# Beta apoptosis – beta cell apoptosis inhibition; 0.8% of 300,000 active; AID 435005; INS-1E cytokine-induced death, ATP luminescence, 48 h; percent of positive-control rescue, neutral wells zero; protection from apoptosis, % (test concentration not listed);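 active means all replicates at 75% or more, or half of them and the mean; inconclusive means half reach 75% but not the mean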;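 further: 0% = cytokine-treated negative control wells and 100% = positive control rescue; higher means more ATP so stronger rescue from cytokine killing; wells of about 40 µL received 100 nL stock; the first replicate is given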
# T cruzi inh – blocks replication of Trypanosoma cruzi | 1.4% of 300,000 active | AID 1885 | inhibition, % (concentration not given with the values) | T. cruzi beta-gal in NIH3T3, luminescence, 90 h;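 active means mean inhibition across valid replicates above about 55%, limit read from the data; inconclusive means mean below that limit but half or more replicates reach it; inactive means mean below it, under half of replicates reach it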;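 further: signal also drops with host cell toxicity which is not excluded here; 0% = plate median of DMSO wells and 100% = zero luminescence signal; higher percent means less beta-gal luminescence so fewer parasites; stock transfer was 50 nL into about 50 µL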
# rRNA inh HTS OD600 – second read-out of rRNA inh HTS, no call of its own (marks repeat the call); OD600 change, %; measured here: OD600 growth;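 optical density of the mix in the first replicate; 0 = DMSO median and -100 = no signal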
# rRNA inh HTS RFP – recorded beside rRNA inh HTS, whose call it bears; RFP signal change, %; measured here: RFP humanized mutant strains;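 first replicate; 0 = DMSO median and -100 = no signal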
# * marks the source's active call; other numbers are inactive results; i = inactive; ? = inconclusive; · = not tested or not shown. Only part of the results is shown; the hit share may differ from the screen's.
(1) CCOc1ccccc1NC(=O)Cn1c(=O)n(-c2ccc(OC)cc2OC)c(=O)c2c(C)c(C(=O)N(CC)CC)sc21
(2) O=C(CN(c1cccc(C(F)(F)F)c1)S(=O)(=O)c1ccc(Cl)c([N+](=O)[O-])c1)NCc1ccccc1
(3) CC(=O)OC1CC(C)(C)N(OC(=O)c2ccc(N)cc2)C(C)(C)C1
(4) CCn1c(=O)c(C(=O)CN2CCOCC2)c(N)n(Cc2ccccc2)c1=O
(5) CCOC(=O)c1[nH]c(C)c(CCC(=O)OC)c1C
assay / entry,1,2,3,4,5
E coli growth,0.69,0.67,0.69,0.71,0.73
AF4-AF9 inh,3.6,·,·,·,·
A1 inh,1.1,-0.1,0.1,0.7,1.1
rRNA inh HTS,6,·,·,·,·
rRNA inh HTS OD600,-5,·,·,·,·
rRNA inh HTS RFP,1.6,·,·,·,·
UCH37 DUB inh,-0.3,0.0,1.4,1.6,5.3
FGF22 binding,i,·,·,·,·
Beta apoptosis,1,-8,-5,-5,4
T cruzi inh,9,-8,5,8,0

(6) O=C(C1=COCCO1)N1CCN(S(=O)(=O)c2cccc(Br)c2)CC1
(7) O=Cc1cccn1-c1ncc(Br)cn1
(8) CCn1cc(C(=O)N2CCCC2)c(=O)c2cc(S(=O)(=O)N(C)C)ccc21
(9) O=C(COC(=O)CC1CC2CCC1C2)Nc1ccc(Cl)c(S(=O)(=O)N2CCOCC2)c1 (centres undefined)
(10) O=C1CC(C(=O)Nc2ccc(Cl)c(Cl)c2)S/C(=N\N=C\c2ccco2)N1 (centres undefined)
assay / entry,6,7,8,9,10
E coli growth,0.72,0.65,0.75,0.69,·
AF4-AF9 inh,-1.5,-1.4,3.5,2.8,-3.2
A1 inh,-0.1,0.0,0.0,0.4,0.1
rRNA inh HTS,-1,16,8,-29,5
rRNA inh HTS OD600,1,9,7,-44,10
rRNA inh HTS RFP,-5.0,-0.3,-0.1,-6.9,12
UCH37 DUB inh,8.0,3.1,5.7,1.1,·
FGF22 binding,i,i,i,i,i
Beta apoptosis,2,-4,-4,1,4
T cruzi inh,·,-10,1,·,-21

(11) Cc1ccc(N2CN(Cc3cccnc3)CNC2=S)c(C)c1
(12) O=c1[nH]c2cc(Cl)c([N+](=O)[O-])nc2[nH]1
(13) CN(Cc1ccccc1)C(=O)c1nc2ccccn2c1CN1CCCC1c1nccs1 (centres undefined)
(14) Cc1ccc(C(C(=O)NC(C)(C)C)N(C(=O)CCC(=O)Nc2ccccn2)c2ccccc2F)cc1 (centres undefined)
(15) COC(=O)c1cc2c(ccn2-c2ccc(F)cc2)n1C(C)C
assay / entry,11,12,13,14,15
E coli growth,0.7,0.74,0.71,0.67,0.7
AF4-AF9 inh,·,12,-1.5,3.0,·
A1 inh,0.8,0.2,-0.3,0.4,0.1
rRNA inh HTS,·,16,-8,-3,·
rRNA inh HTS OD600,·,0,-8,-31,·
rRNA inh HTS RFP,·,2.5,-2.6,-6.4,·
UCH37 DUB inh,2.6,6.0,5.0,-0.5,-1.4
FGF22 binding,·,i,i,i,·
Beta apoptosis,1,-8,?,0,-3
T cruzi inh,?,5,-1,19,27

# Screen by screen, as entered above.
# Compounds 2 to 13 in rRNA inh HTS read ·, ·, ·, ·, -1, 16, 8, -29, 5, ·, 16, -8
# Compounds 2 to 13 in rRNA inh HTS OD600 read ·, ·, ·, ·, 1, 9, 7, -44, 10, ·, 0, -8
# Compounds 2 to 13 in FGF22 binding read ·, ·, ·, ·, i, i, i, i, i, ·, i, i

# Additional records
(16) O=C(Cc1ccc(-c2ccccc2)cc1)Nc1ccccn1
(17) CCOc1cccc(CNc2ccc(O)cc2)c1OCc1ccc(Cl)cc1Cl
(18) Cc1ccc(NC(=S)c2nc3ccccc3[nH]2)cc1
(19) Cc1cccc(NCc2nc3ccccc3n2Cc2ccccc2)c1
(20) COc1ccccc1N1CCN(Cc2cc3c(cc2[N+](=O)[O-])OCO3)CC1
assay / entry,16,17,18,19,20
E coli growth,0.66,0.75,0.68,0.69,0.73
AF4-AF9 inh,-1.7,·,·,·,9.9
A1 inh,1.4,-0.2,-6.4,-1.2,0.1
rRNA inh HTS,-2,·,·,·,0
rRNA inh HTS OD600,-23,·,·,·,-3
rRNA inh HTS RFP,-2.5,·,·,·,1.5
UCH37 DUB inh,-3.2,3.6,4.1,0.7,2.2
FGF22 binding,i,·,·,·,i
Beta apoptosis,8,49,54,-10,2
T cruzi inh,10,15,35,9,-4

# Sorted by count of non-hydrogen atoms (largest number first): part of the list above
(1) CCOc1ccccc1NC(=O)Cn1c(=O)n(-c2ccc(OC)cc2OC)c(=O)c2c(C)c(C(=O)N(CC)CC)sc21
(14) Cc1ccc(C(C(=O)NC(C)(C)C)N(C(=O)CCC(=O)Nc2ccccn2)c2ccccc2F)cc1 (centres undefined)
(2) O=C(CN(c1cccc(C(F)(F)F)c1)S(=O)(=O)c1ccc(Cl)c([N+](=O)[O-])c1)NCc1ccccc1
(13) CN(Cc1ccccc1)C(=O)c1nc2ccccn2c1CN1CCCC1c1nccs1 (centres undefined)
(17) CCOc1cccc(CNc2ccc(O)cc2)c1OCc1ccc(Cl)cc1Cl
(20) COc1ccccc1N1CCN(Cc2cc3c(cc2[N+](=O)[O-])OCO3)CC1
(10) O=C1CC(C(=O)Nc2ccc(Cl)c(Cl)c2)S/C(=N\N=C\c2ccco2)N1 (centres undefined)
assay / entry,1,14,2,13,17,20,10
E coli growth,0.69,0.67,0.67,0.71,0.75,0.73,·
AF4-AF9 inh,3.6,3.0,·,-1.5,·,9.9,-3.2
A1 inh,1.1,0.4,-0.1,-0.3,-0.2,0.1,0.1
rRNA inh HTS,6,-3,·,-8,·,0,5
rRNA inh HTS OD600,-5,-31,·,-8,·,-3,10
rRNA inh HTS RFP,1.6,-6.4,·,-2.6,·,1.5,12
UCH37 DUB inh,-0.3,-0.5,0.0,5.0,3.6,2.2,·
FGF22 binding,i,i,·,i,·,i,i
Beta apoptosis,1,0,-8,?,49,2,4
T cruzi inh,9,19,-8,-1,15,-4,-21

(19) Cc1cccc(NCc2nc3ccccc3n2Cc2ccccc2)c1
(6) O=C(C1=COCCO1)N1CCN(S(=O)(=O)c2cccc(Br)c2)CC1
(11) Cc1ccc(N2CN(Cc3cccnc3)CNC2=S)c(C)c1
(18) Cc1ccc(NC(=S)c2nc3ccccc3[nH]2)cc1
(5) CCOC(=O)c1[nH]c(C)c(CCC(=O)OC)c1C
(7) O=Cc1cccn1-c1ncc(Br)cn1
assay / entry,19,6,11,18,5,7
E coli growth,0.69,0.72,0.7,0.68,0.73,0.65
AF4-AF9 inh,·,-1.5,·,·,·,-1.4
A1 inh,-1.2,-0.1,0.8,-6.4,1.1,0.0
rRNA inh HTS,·,-1,·,·,·,16
rRNA inh HTS OD600,·,1,·,·,·,9
rRNA inh HTS RFP,·,-5.0,·,·,·,-0.3
UCH37 DUB inh,0.7,8.0,2.6,4.1,5.3,3.1
FGF22 binding,·,i,·,·,·,i
Beta apoptosis,-10,2,1,54,4,-4
T cruzi inh,9,·,?,35,0,-10

# Other entries.
(21) CC(=O)Nc1ccc(Sc2ncccc2C(=O)Nc2ccc(OC(F)(F)F)cc2)cn1
(22) CC(=O)N1CCC(N(CCN2CCOCC2)C(=S)Nc2cccc(C)c2)CC1
(23) O=CN1CCN(C(C(=O)NC2CCCCC2)c2ccc(Cl)cc2)CC1 (centres undefined)
(24) CC(=O)Nc1ccc(S(=O)(=O)N[C@@H](C)C(=O)OCC(=O)NC2CCCC2)cc1
(25) CCCN1C(=O)C(=O)c2cc(Cl)ccc21
assay / entry,21,22,23,24,25
E coli growth,0.64,0.72,0.76,0.72,0.68
AF4-AF9 inh,1.3,4.1,19,-4.1,1.6
A1 inh,0.3,0.0,0.8,0.9,0.0
rRNA inh HTS,5,9,10,·,0
rRNA inh HTS OD600,4,1,6,·,-1
rRNA inh HTS RFP,-0.8,-1.4,1.6,·,3.1
UCH37 DUB inh,3.0,1.3,0.8,0.4,-0.8
FGF22 binding,i,i,i,i,·
Beta apoptosis,12,4,4,-4,-12
T cruzi inh,-18,-6,9,·,·

(26) Cc1nn(-c2ccc(C(=O)NCC(c3ccco3)N3CCCC3)cc2)c(C)c1Cl (centres undefined)
(27) CCOC(=O)N1CCN(CCCc2ccccc2)CC1
(28) O=C(CN1C(=O)c2ccccc2C1=O)OCCOCCN=C1NS(=O)(=O)c2ccccc21
(29) CCOC(=O)CC(N)c1ccc(OC)cc1 (centres undefined)
(30) COCCNC(=O)CSc1nc2c(n1-c1ccccc1)CCCC2
(31) O=C(CNC(=O)C1CCCCC1)NNC(=O)c1ccccc1Br
(32) CC(C)(C#N)Nn1cnnc1
assay / entry,26,27,28,29,30,31,32
E coli growth,0.68,0.64,0.68,0.75,0.7,0.7,0.68
AF4-AF9 inh,3.4,-0.7,-2.3,·,·,-7.5,·
A1 inh,0.6,-0.1,1.2,0.7,0.0,-0.5,0.5
rRNA inh HTS,-7,5,5,·,·,3,·
rRNA inh HTS OD600,-6,7,3,·,·,10,·
rRNA inh HTS RFP,0.1,-0.7,-2.1,·,·,6.8,·
UCH37 DUB inh,3.2,4.2,5.0,2.6,0.5,1.3,3.9
FGF22 binding,i,i,i,·,·,i,·
Beta apoptosis,0,3,0,-4,-1,0,-2
T cruzi inh,·,2,-4,1,-1,-14,-6

# Source: PubChem BioAssay (several laboratories)
